NPYLR7 agonist = activates Aedes aegypti NPYLR7 receptor; activation, % at 10 µM; AID 1259423; actives 0.15% (n = 270,000); HEK293T NPYLR7/Galpha15, GCaMP6s calcium fluorescence; in the data active = activation above about 40%;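 also: 0% = vehicle and 100% = reference agonist at the receptor; some compounds past the cut are filed as inactive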
NPYLR7 agonist max-min = also measured in NPYLR7 agonist; calls as there; activation, %; measured here: Max-Min RFU normalised activation; some inactives read as strong as hits;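 span of the calcium signal over five minutes; 0% = vehicle and 100% = native peptide agonist; compound fluorescence can raise it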
An asterisk follows results filed as active; & = joins results of further samples. Some of the compounds tested; rates above refer to the full screens.

SMILES	NPYLR7 agonist	NPYLR7 agonist max-min
Fc1ccccc1-c1n[nH]c(=S)n1N=Cc1ccc(-c2ccccc2Cl)o1	7	5
CC(=O)Nc1ccc(NC(=O)CSc2nc(=O)n(Cc3ccncc3)c3c2CCC3)cc1	12	8
c1ccc(C2=Nc3ccccc3SC2c2nc3ccccc3[nH]2)cc1 (stereo unspecified)	11	11
COc1ccccc1-c1cc(N)n(-c2ccc(C)cc2)n1	5	4
COc1ccc(C2SCC(=O)N2CC(=O)NCc2ccc(F)cc2)cc1OC (stereo unspecified)	-5	-3
CCOC(=O)CC(=O)CSc1cc(C(C)(C)C)nc2c(-c3ccccc3)c(C)nn12	-2	-4
COCC(=O)N1CCN(c2nc(Cc3ccc(C)cc3)nc3c2c(C)nn3-c2ccc(F)cc2)CC1	-21	-19
O=C(NCCC1=CCCCC1)c1cncn1-c1cccc(-c2cccc3c2sc2ccccc23)c1	-5	0
CN1CCN(C(=O)CCNC(=O)c2ccsc2)c2ccc(F)cc21	-5	-6
COc1ccc(N2CCN(C(=O)c3cccs3)C(C)C2=O)cc1OC (stereo unspecified)	-10	-3
COc1ccc(-c2nc3ccc(C)cn3c2NC(=O)c2ccc(Cl)cc2)cc1OC	-5	-1
NC(=O)c1cccc(C(=O)N=c2sccn2Cc2ccccc2F)c1	0	-3
Cc1ccc2nc(SCC(=O)Nc3ccccc3C)nc(=O)n2c1	3	1
CC(C)N1CCCC(C)(C(=O)Nc2cccc(Oc3ccccc3)c2)C1 (stereo unspecified)	-1	-1
CCOc1ccc(NC(=O)N(CC(=O)Nc2c(-c3ccccc3)c(C)nn2-c2ccccc2C)C(C)C)cc1	-13	-6
CCNC(=O)Nc1ccc(N(C)C)c(CN(Cc2ccc(F)cc2)C(=O)c2ccco2)c1	2	15
COc1ccccc1Oc1c(CN(CC(O)COc2ccccc2)C2CC2)c(C)nn1-c1ccccc1 (stereo unspecified)	8	14
Cc1cc(C)n2nc(C(=O)N(C)Cc3ccc(C(C)C)cc3)nc2n1	2	-1
COCCN(Cc1c(-c2ccccc2)nn(C)c1Oc1cccc(OC)c1)CC(O)CN1CCOCC1 (stereo unspecified)	5	5
O=C1NC2(CCCc3ccccc32)C(=O)N1CCOc1ccccc1 (stereo unspecified)	6	2

Gathered by group: the entries above with sulfur.
SMILES	NPYLR7 agonist	NPYLR7 agonist max-min
Fc1ccccc1-c1n[nH]c(=S)n1N=Cc1ccc(-c2ccccc2Cl)o1	7	5
CC(=O)Nc1ccc(NC(=O)CSc2nc(=O)n(Cc3ccncc3)c3c2CCC3)cc1	12	8
c1ccc(C2=Nc3ccccc3SC2c2nc3ccccc3[nH]2)cc1 (stereo unspecified)	11	11
COc1ccc(C2SCC(=O)N2CC(=O)NCc2ccc(F)cc2)cc1OC (stereo unspecified)	-5	-3
CCOC(=O)CC(=O)CSc1cc(C(C)(C)C)nc2c(-c3ccccc3)c(C)nn12	-2	-4
O=C(NCCC1=CCCCC1)c1cncn1-c1cccc(-c2cccc3c2sc2ccccc23)c1	-5	0
CN1CCN(C(=O)CCNC(=O)c2ccsc2)c2ccc(F)cc21	-5	-6
COc1ccc(N2CCN(C(=O)c3cccs3)C(C)C2=O)cc1OC (stereo unspecified)	-10	-3
NC(=O)c1cccc(C(=O)N=c2sccn2Cc2ccccc2F)c1	0	-3
Cc1ccc2nc(SCC(=O)Nc3ccccc3C)nc(=O)n2c1	3	1

Full records from above. Order of screens: NPYLR7 agonist | NPYLR7 agonist max-min
Listed for Cc1ccc2nc(SCC(=O)Nc3ccccc3C)nc(=O)n2c1 : 3 | 1
Listed for CCNC(=O)Nc1ccc(N(C)C)c(CN(Cc2ccc(F)cc2)C(=O)c2ccco2)c1 : 2 | 15
Listed for NC(=O)c1cccc(C(=O)N=c2sccn2Cc2ccccc2F)c1 : 0 | -3
Listed for COCCN(Cc1c(-c2ccccc2)nn(C)c1Oc1cccc(OC)c1)CC(O)CN1CCOCC1 (stereo unspecified) : 5 | 5
Listed for CCOc1ccc(NC(=O)N(CC(=O)Nc2c(-c3ccccc3)c(C)nn2-c2ccccc2C)C(C)C)cc1 : -13 | -6

Additional compounds:
SMILES	NPYLR7 agonist	NPYLR7 agonist max-min
CC(OCC(F)(F)F)C(=O)Nc1ccccc1Sc1nccn1C (stereo unspecified)	2	0
COc1ccc(C2=CSC3=NS(=O)(=O)CCN23)cc1Br	-2	-4
CNCC(=O)NCCn1nc(-c2ccccc2)ccc1=O	-2	1
COc1ccc(C(=O)N2CCCC(C(=O)c3ccc(C(F)(F)F)cc3)C2)o1 (stereo unspecified)	0	-2
O=C1NC(C(=O)NC2CCC3CCCC3C2)CS1 (stereo unspecified)	14	11
CC1CN(c2cc(Oc3ccc(F)c(Cl)c3)ncn2)CCN1C(=O)CCc1ccccc1 (stereo unspecified)	11	9
O=C(/C=C/c1cc(F)ccc1F)N1CCC2(CCNC2=O)CC1	8	11
COc1ccc2cc(CNCc3ccc4c(c3)CCC4)ccc2c1	14	11
COc1cc(OC)c(C2c3cccn3CCCN2Cc2ccccn2)cc1OC (stereo unspecified)	-2	5
COCCN(Cc1ccc(OS(=O)(=O)c2cccc(C(F)(F)F)c2)cc1)C(=O)Nc1ccc(C)cc1C	-3	-12
O=C(Nc1nnc(-c2ccncc2)o1)c1ccccc1Cl	9	2
Cc1ccc(-c2cc(C(=O)OCc3ccccc3C#N)[nH]n2)cc1	7	4
CC(C)c1cc(C(=O)N(C)Cc2cnn(-c3ccc(F)cc3)c2)n(C)n1	-1	-12
CNC(=O)CNC(=O)c1c(C)oc(C)c1C	-1	-2
Cc1cccc(C)c1Nc1c(-c2ccc(C(F)(F)F)cc2)nc2c(OCc3ccccc3)cccn12	5	10
Cc1nc2c(OCCN3C(=O)c4ccccc4C3=O)cccn2c1N(C)C(=O)CCC1CCCC1	-5	-13
O=c1c2c3nc4ccccc4nc3n(CCc3ccccc3)c2ncn1Cc1ccco1	1	0
CC(C)(C)c1cc2nc(-c3ccccc3F)cc(C(=O)N3CCN(c4ccc([N+](=O)[O-])cc4)CC3)n2n1	-11&22	-7&33
CC(C)c1nnc(NC(=O)Cc2ccccc2)s1	-5	-10
Cc1nnc(CN2CCOc3c(O)cc(-c4cccc(Cl)c4)cc3C2)s1	6	3
CC1Cc2cc(CNCC(=O)NCc3ccccc3F)ccc2O1 (stereo unspecified)	3	1
Cc1ccc2c(c1)c(-c1ccc(O)cc1)nn2C	-2	10
CN(Cc1c(F)cccc1Cl)C(=O)C12CCC(=O)N1c1ccccc1S2 (stereo unspecified)	7	2
Cc1cc(N)c2c(n1)N(C)CC2	-13	-20
Cc1ccc(CNC(=O)COc2cc(=O)n3cccc(C)c3n2)cc1	-5	-2
CC(=O)O[C@@H](C)C(=O)N1CCN(c2ncccc2C(=O)NCc2ccc3c(c2)OCO3)CC1	4	1
CCOCCn1c(C)c(C)n2c3c(=O)n(C)c(=O)n(C)c3nc12	4	3
FC(F)(F)c1cccc(-c2cc3c(cn2)ncn3Cc2cccnc2)c1	-5	0
O=C(Nn1cnc2ccccc21)c1cccc(Cl)c1Cl	0	-2
Cc1nn(-c2ccccc2)c2nc(N)c(C#N)c(-c3c(F)cccc3Cl)c12	6	1
CCOC(=O)C=CC(=O)OCc1cc(=O)n2cc(C)ccc2n1	0	6
CC(C)NC(=O)Nc1ccc(N(C)C)c(CN(Cc2ccco2)C(=O)c2cccc(F)c2)c1	16	17
COC(=O)Cn1cnc2sc3c(c2c1=O)CCC(C)C3 (stereo unspecified)	-1	-2
CCCC(=O)N1CCCCC1C(=O)NC1CCc2ccccc21 (stereo unspecified)	-14	-17
CCOC(=O)[C@H]1C[C@]2(CCCCNC2=O)N(C(=O)c2ccno2)[C@H]1c1ccccc1	0	8
COc1ccc(C(=O)N(Cc2c(-c3ccccc3)noc2N2CCSCC2)CC(C)C)cc1	12	13
Cc1nc(-c2ccccc2)sc1CNC(C)C(=O)NC1CCCC1 (stereo unspecified)	5	3
COc1cccc(Cc2nsc(N(C)CC(=O)N3CCN(C(c4ccccc4)c4ccccc4)CC3)n2)c1	-2	3
c1ccc(-c2ccc3nnc(SCc4cccnc4)n3n2)cc1	-14	-6
Cn1c(=O)c2ccccc2n2c(CNc3cccc4c3CCCC4)nnc12	8	7

Copied from the list.
Value for c1ccc(-c2ccc3nnc(SCc4cccnc4)n3n2)cc1 in NPYLR7 agonist max-min: -6
Value for Cn1c(=O)c2ccccc2n2c(CNc3cccc4c3CCCC4)nnc12 in NPYLR7 agonist max-min: 7

Continued:
SMILES	NPYLR7 agonist	NPYLR7 agonist max-min
OC1CCN(c2ccnc(/C=C/c3ccccc3)n2)C1 (stereo unspecified)	-3	-12
COc1ccc(CC2CN(C(=O)c3cc(C(C)C)n4ncnc4n3)CCO2)cc1 (stereo unspecified)	7	3
CNC(=O)c1cccc(C(=O)OCCc2cccs2)c1	0	1
COc1ccccc1N1C(=NC(=O)CCCC(=O)O)SC2CS(=O)(=O)CC21 (stereo unspecified)	-9	-13
COc1cccc(CN2C(=O)COCc3cc(-c4cnn(C)c4)ccc32)c1	6	4
Oc1cc2ccccc2c(N=Nc2ccc(Cl)cc2)c1O	-5	-9
Nc1nc(CSc2nnc3c(n2)[nH]c2ccccc23)nc(N2CCOCC2)n1	0	-2
O=C(c1nc(N2CCCC2)nc2c1CCCC2)N1CCN(Cc2ccc3c(c2)OCO3)CC1	1	0
CC(NC(=O)C12CC3CC(CC(C3)C1)C2)C1CC2CCC1C2 (stereo unspecified)	5	5
c1ccc(CN(Cc2cnc(-c3ccccn3)nc2)CC2CCCO2)nc1 (stereo unspecified)	12	3
CC(=O)N1CCC(N2CCN(c3ccncc3F)CC2)CC1	15	12
CCN(Cc1ccccc1Cl)S(=O)(=O)N1CCC(C(N)=O)CC1	1	0
FC(F)(F)Oc1ccc(-c2nccnc2N[C@H]2CCN(Cc3ccccc3)C2)cc1	-2	-9
COC(=O)c1cc(CNC(=O)CCn2cncn2)ccc1OC	-4	-4
COc1cccc(CN2CC(C(=O)NCCOc3ccccc3F)CCC2=O)c1 (stereo unspecified)	11	7
O=C(Cc1ccccc1O)N1CCSCC1c1ccc(Cl)cc1 (stereo unspecified)	4&-3	3&-4
COc1ccc2c(c1)CC(NCc1cncn1CC(C)C)CC2 (stereo unspecified)	-3	-4
COc1cccc(N2CCCn3c2nc2c3c(=O)n(CC(C)=O)c(=O)n2C)c1	0	-2
O=C(NCc1cccnc1-n1cnc2ccccc21)C1CCC1	3	2
CNc1ncc(-c2ccc(CO)cc2)c(-c2ccc(C)cc2)n1	-2	2
COC(=O)c1cc(S(N)(=O)=O)ccc1NC1CCSc2c(F)cccc21 (stereo unspecified)	11	9
CCN(Cc1ccccc1)C(=O)c1sc2nc3n(c(=O)c2c1C)CCCCC3	6	3
CN(C(=O)c1ccc(NC(=O)c2ccccc2)cc1)c1ccnn1C	6	4
O=C(Nc1nc(-c2ccc(Cl)s2)cs1)c1cc(=O)c2ccccc2o1	8	8
O=C(CN1CSCC1=O)Nc1ccccc1N1CCc2ccccc21	2	0
CCc1ccc(C(=O)Oc2ccc(-c3nc4ccc(Br)cn4c3NC3CCCCC3)cc2OC)cc1	0	6
S=c1[nH]nc(C2(c3ccc(Cl)cc3)CCC2)n1-c1ccccc1Br	-15	-23
CCN1/C(=C\C=C2/SC(=Nc3ccc4sc(C)nc4c3)N(C)C2=O)Sc2ccccc21	-2	-5
COc1ccc(-c2ccc(=O)n(CCCNC(=O)Nc3ccc4c(c3)OCO4)n2)cc1	1	-1
CSc1ccc(CN(Cc2ccco2)S(=O)(=O)c2ccc(Cl)s2)cc1	-22	-25
Cc1cc(NC(=O)NCCc2nc(-c3ccccc3)oc2C)n(C)n1	9	5
O=S1(=O)CC(O)C(NCCc2ccc3c(c2)OCCO3)C1 (stereo unspecified)	5	6
CCC(CC)C(=O)Nc1c(C)nc2c(C)cccn2c1=O	6	3
CC1(C)C2CCC1(C)C(NC(=O)Cn1ccc(=O)c3ccccc31)C2 (stereo unspecified)	-23	-24
COc1cccc(Nc2ccc3c(=O)c(-c4ccccc4OC)c(C)oc3c2)c1	-9	-11
CC(C)c1ccc(C(=O)NCC2(O)CCCNCC2)c(=O)n1C (stereo unspecified)	12	10
COC(=O)c1ccc(NC(=O)CSc2ccc(-c3sc(-c4cccnc4)nc3C)nn2)cc1	4	2
O=C(NC1CCCC1)C1CCN(S(=O)(=O)N2CCCCC2)CC1	9	4
COC(=O)c1c(Cl)ncn1-c1ccccc1	-2	-6
CC(Cl)C(=O)Nc1cccc(-c2cccc(-c3ccc(F)cc3)n2)c1 (stereo unspecified)	-8	-10
CC(C)Cn1c(=O)[nH]c(=O)c2c(=S)nc(CC3CC4CCC3C4)[nH]c21 (stereo unspecified)	-1	0
O=C(CSc1nnc(-c2ccc3c(c2)OCCO3)c(=O)[nH]1)Nc1c(F)cccc1F	-2	-2
Cc1cc(C)c(CN2CCCC2Cn2cccn2)c(C)c1CO (stereo unspecified)	-1	3
COc1ccccc1-n1c(CNC(=O)c2cccs2)nnc1SCC(=O)Nc1ccc(F)cc1	10	11
Fc1ccccc1N1CCN(Cc2nc(Cc3ccccc3Cl)no2)CC1	0	-4
COc1ccc(S(=O)(=O)NC(=O)C2(C)CCN2C(=O)c2ccccc2CCc2ccccc2)cc1 (stereo unspecified)	7	5
COC(=O)c1ccc(OCC(=O)NC(C)c2ccco2)cc1 (stereo unspecified)	-2	-4
Cc1ccc(C(=O)N(NC(=O)C(C)C)c2ccccc2)s1	2	-2
CCn1c(CC2CCN(Cc3nc4ccccc4n3C)CC2)nn(C)c1=O	-2	-4
Cc1ccc(-c2cc(C(=O)N3CCN(CC(N)=O)CC3)on2)cc1	8	0
O=C(CN(Cc1c(F)cccc1Cl)C1CC1)N1CCNC1=O	8	7
CCC(=O)Nc1ccc([N+](=O)[O-])cc1C#N	4	8
